Compound activity: PubChem, National Center for Advancing Translational Sciences (NCATS)
VDR inhibitor – vitamin D3 receptor (human) inhibition | AID 504847 | Potency, µM, for the others: max response, negative = inhibition, hits mostly inhibitors | VDR-SRC2-3 peptide fluorescence polarization, 2 h | P11473 | 0.93% of 400,000 active; active = well fitted inhibition curve with a large enough effect; inconclusive = small, poorly fitted or top-dose-only effect, or another doubt; inactive = no such curve, though single readings can be large or run the other way; also: series mostly up to about 120 µM
Target sequence (P11473 whole entry, looked up): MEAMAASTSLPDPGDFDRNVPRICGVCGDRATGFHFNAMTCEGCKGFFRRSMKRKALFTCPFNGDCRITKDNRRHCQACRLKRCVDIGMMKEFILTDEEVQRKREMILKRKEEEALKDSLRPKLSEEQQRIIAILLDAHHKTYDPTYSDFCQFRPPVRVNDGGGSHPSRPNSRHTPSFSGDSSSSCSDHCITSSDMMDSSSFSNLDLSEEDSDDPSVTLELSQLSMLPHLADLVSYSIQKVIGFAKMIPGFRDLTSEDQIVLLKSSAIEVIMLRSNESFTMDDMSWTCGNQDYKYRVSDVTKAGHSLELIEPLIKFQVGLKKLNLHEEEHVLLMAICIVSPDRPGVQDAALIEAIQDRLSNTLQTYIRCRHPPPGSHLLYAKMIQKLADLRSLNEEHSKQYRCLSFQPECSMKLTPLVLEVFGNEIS
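After 23 nl compound addition and a short centrifugation, plates sat for 2 hours at ambient temperature; polarization of fluorescence then indicated loss of VDR binding to peptide SRC2-3.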
* = called active by the depositor; ? = inconclusive; & = joins results of further samples. % is scaled to controls: 0 for no effect and ±100 for the full control effect; potency is read from the fitted curve at half-maximal effect. A portion of the library, so the mix of outcomes need not match the whole.

VDR inhibitor,molecule
-1%,Cc1ccc(NC(=O)c2ccccc2Cl)c(Cl)c1
7%,COc1ccccc1CNC(=O)Cn1cnnn1
7%,CN(C)CCCOC(=O)c1sc2ccccc2c1Cl
2%,CCCc1ccc2oc(C(=O)N3CCN(C4CCS(=O)(=O)C4)CC3)c(C)c2c1 (configuration not stated)
-1%,Clc1ccc(Cn2ncc3c(NCc4ccco4)ncnc32)c(Cl)c1
-12%,CCOc1ccccc1N(CC)C(=O)c1cc2c(=O)n(CC)c3ccccc3c2s1
-10%,CC(CNC(=O)C(C)C)NC(=O)C(C)C (configuration not stated)
4%,CC(C)CCN1C(=O)c2ccc(C(=O)NCc3ccco3)cc2C1=O
4%,COCCOC(=O)C1=C(C)NC(=O)NC1/C=C/c1ccccc1 (configuration not stated)
5%,CCCC(=O)NNC(=O)CC(=O)Nc1ccccc1C(=O)O
-3%,C/C(=N/NC(=O)c1ccoc1C)c1ccc(NC(=O)C2CCCC2)cc1
-13%,O=C(OCc1cccnc1)C1=Cc2ccccc2OC1
7%,O=C(O)CN=C(NS(=O)(=O)c1ccc(Cl)cc1)c1ccccc1
-1%,COc1cc(/C=C/C(=O)N2CCN(C(=O)/C=C/c3cc(OC)c(OC)c(OC)c3)CC2)cc(OC)c1OC
12%,O=C(O)c1n[nH]c2c1CCCC2
1%,Cc1cccc(C)c1OC1(c2ccccc2)OC(=O)c2ccccc21 (configuration not stated)
-5%,Cc1ccc(NC(=O)c2ncn(CCCNCc3ccccn3)n2)cc1C
17%,CCc1cccc(NC(=O)CSc2nccn2C)c1
5%,CCOc1ccc2[nH]c(=S)[nH]c2c1
-8%,Cc1cccc(C)c1NC(=O)CN(C)C(=O)c1ccccc1OCc1ccc(F)cc1
-30%,CN(C)S(=O)(=O)c1ccc(/C(O)=C2/C(=O)C(=O)N(Cc3cccnc3)C2c2cccs2)cc1 (configuration not stated)
8%,COc1ccc(CNC(=O)Cc2ccc(OC)c(S(=O)(=O)N3CCOCC3)c2)cc1
-11%,Cc1nnc(N2CCCC(C(=O)NCc3ccc(OC(C)C)cc3)C2)c2nn(-c3ccccc3)c(C)c12 (configuration not stated)
-1%&1%,COc1ccc(NC(=O)C2=CC(c3ccco3)=NS(=O)(=O)N2C)cc1
-5%,COc1ccc(/C(C)=N/OCC(=O)N=Nc2c(O)[nH]c3ccccc23)cc1
-10%,COc1cccc2[nH]c3c(=O)n(CCN(C)C)cnc3c12
-1%,O=C(Cn1c(CN2CCCCC2)nc2ccccc2c1=O)NC1CCCCC1
-3%,COc1cccc2c1CCC1=CC(=O)CC[C@@]12C
2%,Cc1cc(C)c2c(=O)[nH]c(SCC(=O)NCc3ccccc3)nc2n1
-16%,COC(=O)c1ccc(NC(=O)CN(Cc2ccccc2)S(=O)(=O)c2ccc(C)cc2)cc1
0%,CCOC(=O)N1CCC(NC(=O)CSCc2cnn(-c3ccccc3)c2-n2cccc2)CC1
-5%,O=C1/C(=C/c2cccnc2)CC/C1=C\c1cccnc1
-4%,CCNC(=O)CC1C(=O)N(c2ccc(C)cc2)C(=O)N1CCc1ccc(OC)c(OC)c1 (configuration not stated)
4%,O=S(=O)(c1ccccc1)N(CC(F)(F)F)c1ccc(C(O)(C(F)(F)F)C(F)(F)F)cc1
16%,c1ccc(CNC2=NCCCCC2)cc1
18µM*,O=C(NC1CCCCCC1)C(=S)N1CCOCC1
9%,Cc1ccc(S(=O)(=O)N2CC(=O)N3CCN(CCN)C3C2)cc1 (configuration not stated)
-8%,Nc1ncnc2c1ncn2[C@@H]1O[C@H](C(=O)N2CCN(CC(=O)Nc3cccc4c3CNC4=O)CC2)[C@@H](O)[C@H]1O
8%,CCOc1ccccc1C(=O)Nc1ccc(NC(=O)c2ccccc2)cc1
?,COc1ccc(CNc2ncnc3nc[nH]c23)cc1OC
-12%,CCn1c(=NC(=O)CSC(C)=O)sc2cc(F)ccc21
-6%,O=C(O)c1ccccc1-n1cccc1C(=O)O
-19%,Cc1ccc(CNC(=O)c2ccc(N(C)S(=O)(=O)c3ccccc3)cc2)cc1
?,O=S(=O)(NCCC(c1ccc(F)cc1)c1ccco1)c1ccccc1 (configuration not stated)
1%,COCCCNC(=O)c1c[nH]c2ccc(S(=O)(=O)N3CCC(C)CC3)cc2c1=O
11%,O=C(OCCN1CCOCC1)c1cccs1
4%,COc1ccc(Nc2nc(N3CCCCC3)nc(N3CCCCC3)n2)c(OC)c1
6%,COc1ccc(CCN(C)C2CCCN(S(=O)(=O)c3ccc(C)cc3)C2)cc1OC (configuration not stated)
0%,O=C(CN1C(=O)C2CCCCC2C1=O)OCC(=O)c1ccc(Cl)s1 (configuration not stated)
3%,Cc1nc(-c2ccc(NC(=O)C3CC3)cc2)cs1
-12%,COc1cccc(/C=N/NC(=O)c2cccc3ccccc23)c1
6%,COc1cc(C)ccc1OCc1cc(C(=O)N(Cc2c(C)nn(C)c2C)C2CC2)no1
-17%,CCOc1ccccc1CNC(=O)Cn1nc(C)c2c(C)n(-c3ccc(C)cc3)nc2c1=O
3%,OCCNNC(=S)NC1CC2C=CC1C2 (configuration not stated)
?,O=C(Oc1ccc(Br)cc1C(=S)N1CCOCC1)c1ccc([N+](=O)[O-])cc1[N+](=O)[O-]
-13%,CCC(C)Sc1nc2c(cnn2-c2ccc(C)c(C)c2)c(=O)[nH]1 (configuration not stated)
1%,CC(=O)Nc1ccc(NC2(C)C(=O)c3ccccc3C2=O)cc1
-8%,O=C(c1ccco1)N1CCN(C(=S)Nc2ccc(F)c(Cl)c2)CC1
-1%,Cc1cccc(NC(=O)CSc2cccc3cccnc23)c1C
-11%,CSc1ncccc1C(=O)OCc1ccc(Br)cc1

More entries follow.
VDR inhibitor,molecule
1%,COc1cccc(C(=O)NC2CCN(C(=O)N3CCCCC3)CC2)c1
0%,CC(=O)N(Cc1ccc(Br)cc1)c1cccc(C)c1C
?,CN(CCc1ccccn1)c1ccc([N+](=O)[O-])cn1
-7%,COc1ccc(C)cc1NC(=O)c1ccc2c(c1)nnn2C1CCCC1
3%,COC(=O)c1ccccc1NC(=O)CNCCc1ccc(OC)c(OC)c1
-9%,NC1=NC[C@H](Cc2ccc(O)cc2)N1CCc1cccc2ccccc12
10%,CCc1nnc(NC(=O)C(=O)NCCOC(=O)c2ccccc2)s1
-2%,c1cc2c(cc1-n1cnnn1)OCO2
5%,COc1ccc(NC(=O)N2C3CCCC2CC(NC(=O)C2CC2)C3)cc1 (configuration not stated)
1%,COc1ccc(C)cc1NC(=O)C(OC(=O)CNC(=O)c1cccc(F)c1)c1ccccc1 (configuration not stated)
9%,O=C(Cn1cnc2ccccc2c1=O)Nc1nnc(SCc2ccccc2)s1
-14%,Cc1c(C)n(C(=O)CN2CCN(c3ccccc3)CC2)c2ccccc12
-1%,COc1cc(OC)cc(C(=O)NCC(=O)OCC(=O)c2cc(C)n(Cc3ccco3)c2C)c1
-18%,CCOc1ccc(N2CC(C(=O)Nc3ccc(S(=O)(=O)NCC4CCCO4)cc3)CC2=O)cc1 (configuration not stated)
-1%,CCOCCCNC(=O)c1ccc2c(=O)n(CCCOCC)c(=S)[nH]c2c1
-7%,O=C(Nc1cccnc1)c1scc2c1OCCO2
-7%,C[C@@H]1COC(=O)[C@H](CC(=O)OC(C)(C)C)C/C=C\C[C@@H](CC(=O)NCCO)C(=O)N1
2%,CCC1(CC)Cc2ccccc2C(=O)N1
-14%,CCCN1CNC(=S)N(c2ccc(C)cc2C)C1
-9%,Cc1cc(NC(=O)CSC2=NCCS2)no1
-3%,CCCN(CC(=O)Nc1ccc(F)c(F)c1F)C(=O)Cn1c(=O)cnc2ccccc21
?,CCCCCCCCCCCCN1[C@@H](CC(=O)O)c2cc(C(F)(F)F)ccc2S1(=O)=O
2%,COCCCNC(=O)c1ccc(NC(C)=O)cc1
11%,COc1ccc(C)c2sc(NC(=O)c3cccc(N4C(=O)CCC4=O)c3)nc12
1%,O=C(Cc1ccccc1F)Nc1ccccc1N1CCCC1
-26%,COc1ccc(NC(=O)c2ccc3c(c2)NC(=O)CS3)cc1S(=O)(=O)Nc1ccc(Br)cc1
-13%,COc1ccc(NC(=S)N(CCN2CCOCC2)C2CCN(C(C)=O)CC2)cc1Cl
21%,Cc1cccc(C(=O)NCCC(=O)Nc2ccc(F)c([N+](=O)[O-])c2)c1
-5%,COc1cccc(CNc2ncnc3onc(C)c23)c1
-17%,O=C(COC(=O)/C=C/c1ccco1)NC1CCCCC1

Ordered by value in VDR inhibitor (ascending): 5 from the list above
VDR inhibitor,molecule
-13%,COc1ccc(NC(=S)N(CCN2CCOCC2)C2CCN(C(C)=O)CC2)cc1Cl
-9%,Cc1cc(NC(=O)CSC2=NCCS2)no1
2%,CCC1(CC)Cc2ccccc2C(=O)N1
11%,COc1ccc(C)c2sc(NC(=O)c3cccc(N4C(=O)CCC4=O)c3)nc12
21%,Cc1cccc(C(=O)NCCC(=O)Nc2ccc(F)c([N+](=O)[O-])c2)c1

(continued)
VDR inhibitor,molecule
1%,COc1ccc(C(CNC(=O)C(C)(C)Oc2ccc(Cl)cc2)N2CCCCC2)cc1 (configuration not stated)
8%,Nc1cc(C(=O)O)ccc1N1CCCCCC1
12%,COC(=O)Nc1ccc(S(=O)(=O)N2CCCC(C(=O)N3CC(C)OC(C)C3)C2)cc1 (configuration not stated)
2%,O=C(c1cccc(F)c1)N1CCN(Cc2ccc3c(c2)OCO3)CC1
2%,O=C(Nc1ccc(-c2csc(Nc3cccc(C(F)(F)F)c3)n2)cc1)c1ccccc1
-9%,CCc1cccc(C)c1NC(=O)CN1CCCN(Cc2ccccc2Cl)S1(=O)=O
7%,CCOC(=O)C1CCN(C(=O)COC(=O)CCOc2ccc(C)cc2)CC1
-17%,CC(C)Cn1c(N)c(C(=O)COC(=O)CCNS(=O)(=O)c2ccccc2)c(=O)n(C)c1=O
4%,O=C(c1n[nH]c(=O)c2ccccc12)N1CCN(c2ccc(F)cc2)CC1
-6%,N=c1ncn(CC(O)CO)c2nc(N3CCOCC3)[nH]c12 (configuration not stated)
-13%,CSc1ccc([C@H]2CN3CCC[C@H]3c3ccccc32)cc1
-20%,O=C(CSc1nnc(-c2ccccc2)n1-c1ccccc1)NCc1ccco1
-10%,O=C1CN(C(=O)COC(=O)CCC(=O)c2ccc(Cl)cc2)c2ccccc2N1
0%,CC(NC(=O)c1ccccc1NS(=O)(=O)c1ccc(CCC(=O)O)cc1)c1ccccc1 (configuration not stated)
?,COc1ccccc1OCC(=O)NCCSCc1ccccc1Cl
?,O=C(Cn1c(=O)oc2ccccc21)Nc1n[nH]c(=S)s1
-19%,OCCn1c(-c2ccc3c(c2)OCO3)csc1=Nc1ccccc1
7%,Brc1ccc2nc(CSc3ncn[nH]3)cn2c1
5%,COc1ccc(C2=Nn3c(nnc3C3CCCCC3)SC2)cc1OC
?,CSc1cccc(NC(=S)N(CCC(C)C)C2CCN(C(C)=O)CC2)c1
-17%,S=c1[nH]nc(-c2cc(-c3ccsc3)n[nH]2)n1-c1cccc2ccccc12
12%,Cc1ccc(NC(=S)Nc2ccc(Br)cc2)cc1
1%,CC1=CC(C)(C)N2C(=O)C3(C(C#N)=C(N)OC4=C3C(=O)CC(C)(C)C4)c3cc(C)cc1c32 (configuration not stated)
-1%,CCn1cc(C(=O)NC2CCCCCC2)c(=O)c2ccc(C)nc21
-12%,CC1(c2cccc3ccccc23)NC(=O)N(CC(=O)NC2CCS(=O)(=O)C2)C1=O (configuration not stated)
7%,CSCC[C@H](NC(=O)[C@H]1CC[C@H](CNC(=O)[C@@H]2CCCN2)CC1)C(=O)O
-7%,Cc1cccc(OCC(=O)Nc2ccc3nc(SCc4ccccc4)sc3c2)c1
21%,COc1ccccc1/C=C/c1nc(S(=O)(=O)c2ccccc2)c(N2CCC(C(N)=O)CC2)o1
-2%,O=C(NCc1ccccc1)c1ccc(C(=O)N(C2CCCCC2)C2CCCCC2)cc1
-12%,CC(C)COC(=O)N1CCCC1C(=O)Nc1nccs1 (configuration not stated)

Some of these compounds in order of SMILES length, ascending:
VDR inhibitor,molecule
-11%,CSc1ncccc1C(=O)OCc1ccc(Br)cc1
3%,Cc1nc(-c2ccc(NC(=O)C3CC3)cc2)cs1
4%,CC(C)CCN1C(=O)c2ccc(C(=O)NCc3ccco3)cc2C1=O
-20%,O=C(CSc1nnc(-c2ccccc2)n1-c1ccccc1)NCc1ccco1
-7%,Cc1cccc(OCC(=O)Nc2ccc3nc(SCc4ccccc4)sc3c2)c1
12%,COC(=O)Nc1ccc(S(=O)(=O)N2CCCC(C(=O)N3CC(C)OC(C)C3)C2)cc1 (configuration not stated)
21%,COc1ccccc1/C=C/c1nc(S(=O)(=O)c2ccccc2)c(N2CCC(C(N)=O)CC2)o1

The list continues.
VDR inhibitor,molecule
-20%,COc1ccc(C(=O)COC(=O)CN2C(=O)C3C4CCC(C4)C3C2=O)cc1 (configuration not stated)
-1%,FC(F)(F)C(F)(F)C(F)(F)c1nnc2ccc(N3CCOCC3)nn12
-5%,COc1ccc(C(=O)NNC2=Nc3cccc4cccc2c34)cc1
-6%,COC(=O)CNC(c1ccccc1)c1cc(Br)ccc1NC(=O)OCc1ccccc1 (configuration not stated)
-18%,O=C(c1cccc(S(=O)(=O)N2CCc3ccccc32)c1)N1CCN(c2ccccn2)CC1
-23%,O=C(Cn1ccc([N+](=O)[O-])n1)Nc1ccccn1
6%,CCOC(=O)C1=C(CN2CCN(C(=O)c3ccco3)CC2)NC(=O)NC1c1ccc(OC)cc1 (configuration not stated)
-4%,CCN(CC(=O)Nc1c(F)cccc1F)C(=O)c1cccnc1SC
-17%,O=C(O)CCC(=O)Nc1ccc(Br)c(Cl)c1
-15%,CCOc1cc(/C=C/C(=O)OCC(=O)NCCN2C(=O)CSC2=O)ccc1OCC(C)C
-4%,CSc1ccccc1C(=O)Nc1ccccc1C
-4%,Cc1cc(N2CCCC2=O)cc(C)c1S(N)(=O)=O
